VDR inhibitor: inhibitors of human vitamin D receptor | P11473 | VDR-SRC2-3 peptide fluorescence polarization, 2 h | Potency, µM, for the others: max response, negative = inhibition, hits mostly inhibitors | 400,000 compounds, 0.93% hits | AID 504847; active means well fitted inhibition curve with a large enough effect; further: series mostly up to about 120 µM
Target sequence (P11473 whole entry, looked up): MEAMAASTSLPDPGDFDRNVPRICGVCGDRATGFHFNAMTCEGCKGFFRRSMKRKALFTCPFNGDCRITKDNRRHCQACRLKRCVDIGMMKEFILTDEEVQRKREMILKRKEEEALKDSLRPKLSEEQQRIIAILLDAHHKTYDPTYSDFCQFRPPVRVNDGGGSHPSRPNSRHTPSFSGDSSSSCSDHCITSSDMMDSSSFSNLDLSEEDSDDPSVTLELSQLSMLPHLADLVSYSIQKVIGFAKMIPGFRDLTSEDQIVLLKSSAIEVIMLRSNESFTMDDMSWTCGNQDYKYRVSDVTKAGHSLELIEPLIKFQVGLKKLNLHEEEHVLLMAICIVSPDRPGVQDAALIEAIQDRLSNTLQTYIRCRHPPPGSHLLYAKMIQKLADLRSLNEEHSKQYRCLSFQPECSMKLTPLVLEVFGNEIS
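Compounds are added to VDR with labelled SRC2-3 coactivator peptide and held 2 h at room temperature. Inhibition of the VDR–peptide interaction is then read as a change in fluorescence polarization.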
Starred values were filed as active, the others as inactive; & = joins results of further samples; [ ] = remark or other dose. On the % scale 0 is the no-effect control and ±100 the full control effect; potency means the concentration at half of the fitted maximal effect. Only part of the results is shown (hit frequency here may not be typical).

structure | VDR inhibitor
COc1ccc(OC)c(CNC(=O)c2c(C)oc3ncn(C)c(=O)c23)c1 | 4%
CCOc1ccc(NC(=O)CSc2nc(NS(=O)(=O)c3ccc(C)cc3)cc(=O)[nH]2)cc1 | -13%
O=C(Nc1ccc(CN2CCOCC2)cc1)c1cc2ccccc2o1 | -9%
COC(=O)COc1ccc(Oc2nc(NC(C)(C)C)nc(N(C)C)n2)nn1 | 0%
O=C(Nc1ccc(Nc2ccccc2)cc1)c1ccc(Cl)cc1 | 2%
CC(Sc1nnc(Cc2cccs2)n1C1CCCCC1)C(=O)N1CCc2ccccc21 (stereo not drawn) | 3%
COc1ccc(Nc2oc(COc3ccc(Cl)cc3)nc2C#N)cc1 | -14%
CC(=O)Oc1ccc2oc(=O)c3c(c2c1)CCCN3C(=O)CN1CCOCC1 | -3%
CC(C)Oc1ccc(C(=O)NCC(c2ccc(N(C)C)cc2)N2CCCC2)cc1 (stereo not drawn) | 6%
COc1ccc2oc(C(=O)N3CCc4ccccc43)c(C)c2c1 | -18%
COc1ccc(OCc2nnc(SCC(=O)Nc3ccccc3Cl)o2)cc1 | -3%
COc1cc(C(=S)N2CCOCC2)cc(OC)c1OC(=O)c1cc([N+](=O)[O-])c(C)c([N+](=O)[O-])c1 | 1%
COc1cc(CNCCCN2CCOCC2)cc(Br)c1OCC(=O)N1CCCCC1 | 2%
CN(CCNC(=O)c1ccc(N2CCCC2=O)cc1)CCc1ccccc1 | 0%
CC(C)(C)NC(=O)CN1CCN(C(=O)CCl)CC1 | -8%
O=C1CC(Sc2ncn[nH]2)C(=O)N1c1ccccc1 (stereo not drawn) | -3%
Cc1cc(Sc2nccn2C)ncc1[N+](=O)[O-] | -16%
O=C(Nc1ccccc1)c1cccc(S(=O)(=O)N2CCCCC2)c1 | -5%
O=[N+]([O-])c1cccnc1Oc1ccc(C2SCCS2)cc1 | -10%
CSC(=NCc1cccnc1)NS(=O)(=O)c1cccs1 | 4%
CCC(C)(C)C(=O)Nc1ncc(S(=O)(=O)c2ccc([N+](=O)[O-])cc2)s1 | 4%
COc1ccc(N2CC(C(=O)Nc3ccc(S(=O)(=O)Nc4nccs4)cc3)CC2=O)c(OC)c1 (stereo not drawn) | -12%
COc1cc(C=NNC(=O)Cn2nc(C)cc2C)ccc1OC(=O)C1CC1 | 14%
CCCCCc1c(O)nc(SCCN(C)C)[nH]c1=O | 16%
COc1ccc(C)cc1NC(=O)CSc1nnc(-c2cc3cccc(OC)c3o2)n1N | 2%
CCN1CCN(S(=O)(=O)c2ccc(OC)c(NC(=O)c3ccccc3F)c2)CC1 | -10%
CC(C)(C)NC(=O)C(=O)NN=C1CCCCCC1 | 9%
Cc1ccc(NC(=O)Cn2cc(S(=O)(=O)N3CCC(C)CC3)c3ccccc3c2=O)c(Br)c1 | 4%
Brc1ccc(-c2nnc3n2C2(CCCC2)Cc2ccccc2-3)o1 | 0%
CCOC(=O)C1CN(S(=O)(=O)c2ccc(C)cc2)c2cc(S(=O)(=O)CC)ccc2O1 (stereo not drawn) | 18%

Next section; it opens with the 7 that closed the last part.
structure | VDR inhibitor
CCCCCc1c(O)nc(SCCN(C)C)[nH]c1=O | 16%
COc1ccc(C)cc1NC(=O)CSc1nnc(-c2cc3cccc(OC)c3o2)n1N | 2%
CCN1CCN(S(=O)(=O)c2ccc(OC)c(NC(=O)c3ccccc3F)c2)CC1 | -10%
CC(C)(C)NC(=O)C(=O)NN=C1CCCCCC1 | 9%
Cc1ccc(NC(=O)Cn2cc(S(=O)(=O)N3CCC(C)CC3)c3ccccc3c2=O)c(Br)c1 | 4%
Brc1ccc(-c2nnc3n2C2(CCCC2)Cc2ccccc2-3)o1 | 0%
CCOC(=O)C1CN(S(=O)(=O)c2ccc(C)cc2)c2cc(S(=O)(=O)CC)ccc2O1 (stereo not drawn) | 18%
CC(=O)c1c(C)[nH]c(C(=O)CN2C(=O)NC(C)(c3ccc4c(c3)OCCO4)C2=O)c1C (stereo not drawn) | -7%
O=C(CCNc1n[nH]c(=O)[nH]c1=O)N/N=C\c1ccc(Br)cc1 | -5%
CCCC(=O)Nc1cc2c3c(c1)C(C)C(=O)N3CCC2 (stereo not drawn) | -2%
CN(C)S(=O)(=O)N1CCc2ccccc21 | -14%
O=C(Nc1c2c(nn1-c1ccccc1)CS(=O)(=O)C2)c1cccs1 | 11%
CCOC(=O)C1CCN(Cc2cccc(OCc3ccccc3)c2)CC1 | 2%
Cc1nn(C)cc1N1C(=O)c2cccc3c(N)ccc(c23)C1=O | -2%
Cc1ccccc1-n1nc2c(c1NC(=O)COc1ccc(Cl)cc1)CS(=O)C2 (stereo not drawn) | -5%
CC(=O)c1ccc(N2CCN(C(=S)Nc3cccc(Cl)c3)CC2)cc1 | 1%
O=C(Cc1cccs1)NCc1ccccc1Br | 3%
Cc1ccc(S(=O)(=O)NCc2ccc(C(=O)NCCc3ccc(S(N)(=O)=O)cc3)cc2)cc1 | 18%
CCN1C(=O)c2ccccc2S(=O)(=O)c2ccc(C(=O)NCc3ccc(C)cc3)cc21 | -17%
COc1cccc(C2C3=C(CC(C)(C)CC3=O)OC(N)=C2[N+](=O)[O-])c1 (stereo not drawn) | -5%
O=C(CN1CCC(C(=O)c2ccc3c(c2)OCCO3)CC1)Nc1ccccc1C(F)(F)F | 4%
CCOC(=O)C1=C(COC(=O)/C=C/c2cccc([N+](=O)[O-])c2)NC(=O)NC1C (stereo not drawn) | 10%
Cn1ncc(Cl)c1C(=O)N1CCN(C23CC4CC(CC(C4)C2)C3)CC1 | -25%
Cc1cccc(NC(=O)Cn2cc(C(=O)C3CC3)c3ccccc32)c1C | 3%
COCCn1c(=O)[nH]c(=O)c2cc(C(=O)c3cc(Cl)ccc3O)cnc21 | -7%
CCCCCCC(O)(c1ccccc1)C(CN1CCOCC1)c1ccccc1 (stereo not drawn) | 20%
CCc1cccc(CC)c1NC(=O)Cn1nnc2sc3c(c2c1=O)CCCC3 | -22%
Cn1c(NC(=O)c2ccc(Cl)cc2)c(-c2ccccn2)c(=O)c2ccccc21 | -1%
COc1ccccc1Nc1c([N+](=O)[O-])cc(C)cc1[N+](=O)[O-] | -7%
CCC[N+](CC#Cc1ccccc1)(CCC)CC(=O)OC | -7%
CCOC(=O)CC1C(=O)NCCN1Cc1cccc(C(F)(F)F)c1 (stereo not drawn) | -7%
C=C1CCN(C(Cc2ccccc2)C(=O)Nc2ccc(OC)cc2)S(=O)(=O)c2ccccc21 (stereo not drawn) | -19%
O=C(Cn1c(COc2ccc(Cl)cc2)nc2ccccc21)NCC(F)(F)F | -11%
COc1cc(C)ccc1OCCCOc1cc(C)ccc1Cl | -6%
Nc1c(C(=O)NCc2ccc(Cl)cc2)sc2nc3c(c(C(F)(F)F)c12)CCC3 | 15%
COc1ccccc1NS(=O)(=O)c1cccc(NC(=O)c2[nH]c(C)c(C(C)=O)c2C)c1 | 0%
CCN(CC)C(=O)Cn1cc(S(=O)(=O)CC(=O)NCc2ccc(F)cc2)c2ccccc21 | 9%
CCN1CC(CN(C)Cc2nc(-c3ccc(Cl)cc3)no2)CC1=O (stereo not drawn) | -7%
Cc1ccnc(NC(=O)c2ccc3c(c2)C(=O)N(CCC(C)C)C3=O)c1 | -8%
Cc1ccc(C)c(NC(=O)CN(C)C(=O)c2cccc(-n3cccc3)c2)c1 | -9%
COc1cccc(C(c2nnnn2Cc2ccco2)N2CCN(c3cccc(C)c3C)CC2)c1OC (stereo not drawn) | 11%
CC(NC(=O)c1ccnc(C(C)(C)C)c1)c1ccccc1 (stereo not drawn) | -15%
Clc1ccc(CN2CCc3c([nH]c4ccccc34)C2)cc1Cl | -18%
O=C(NCCCn1ccnc1)/C(=C\c1ccccc1Cl)NC(=O)c1ccccc1 | -5%
Cc1c(CCC(=O)O)c(=O)oc2c(C)c(OCc3ccccc3Cl)ccc12 | 29%
O=C(Nc1cc([N+](=O)[O-])ccc1F)c1ccc2c(c1)OCCO2 | -8%
CCOc1ccc(NC(=O)NC(C)c2c(-n3cccc3)sc(C)c2C)cc1 (stereo not drawn) | -3%
CC(=O)N1CCN(C(=S)NC(=O)c2ccc(F)cc2)CC1 | -1%
CNC(C)C#Cc1ccc2sc3cccc(OC)c3c(=O)c2c1 (stereo not drawn) | -22%
Cc1ccc(CN(C)C(=O)COC(=O)CSc2ccc(C(N)=O)cc2[N+](=O)[O-])cc1 | -22%
COc1cccc(CNC(=O)C(=O)Nc2c3c(nn2-c2ccccc2)CSC3)c1 | -8%
COc1ccc(CC(=O)Nc2cccc(/C(C)=N/NC(=O)c3cccc([N+](=O)[O-])c3)c2)cc1 | 0%
CC(C)(C)NC(=O)NC(=O)COC(=O)Cc1c(Cl)cccc1Cl | 33%[activator]
CN(C(=O)c1ccccc1Cl)c1ccccc1 | -3%
O=C(Cc1ccc(Cl)cc1Cl)OCC(=O)c1ccc[nH]1 | 1%
O=C1CN(C(=O)COC(=O)c2cc(S(=O)(=O)N3CCOCC3)ccc2Cl)c2ccccc2N1 | 18%
CC(=O)C1=C(c2ccc(C)cc2)N(C(C)=O)n2c(nnc2-c2ccccc2)S1 | -3%
O=C(CSc1nc2[nH]ncc2c(=O)[nH]1)Nc1cccc([N+](=O)[O-])c1 | 10%
Cc1cccc(NC(=O)COc2cccc3c2CCN(C)C3=O)c1 | 10%
NC(=O)CC(NC(=O)Cc1ccc(Br)cc1)c1ccc(NC2CCCCCC2)c([N+](=O)[O-])c1 (stereo not drawn) | -16%
CCCCN(CC)CCCNC(=O)c1cn(C)c2ccc(S(=O)(=O)N(C)C3CCCCC3)cc2c1=O | -15%&-14%
Cc1cc(C)nc(N2CCN(C(=O)c3ccc(S(=O)(=O)N4CCCCCC4)cc3)CC2)n1 | -5%
Cc1cccc(N2C(=O)C(CC(=O)Nc3ccc(F)cc3)N(C3CCCC3)C2=O)c1 (stereo not drawn) | 2%
CCOc1ccc(S(=O)(=O)NCc2cccnc2)cc1C | 7%
Cc1ccc(S(=O)(=O)N(C)CC(=O)O/N=C(\N)c2ccc([N+](=O)[O-])cc2)cc1 | 1%
Cc1cc(OC(C)C(=O)N2CCC(c3nc4ccccc4o3)CC2)ccc1Cl (stereo not drawn) | 1%
COc1cc(CN2CCN(Cc3ccccc3C(F)(F)F)CC2)cc(OC)c1OC | -13%

Part of the list above, as labelled records:
CNC(C)C#Cc1ccc2sc3cccc(OC)c3c(=O)c2c1 (stereo not drawn)
- VDR inhibitor = -22%

Cc1cc(C)nc(N2CCN(C(=O)c3ccc(S(=O)(=O)N4CCCCCC4)cc3)CC2)n1
- VDR inhibitor = -5%

(further entries)
structure | VDR inhibitor
CCOC(=O)c1cnc2c(ccc3ccccc32)c1Nc1cccc(Cl)c1 | -13%
O=C(NNC(=O)c1cccnc1)NC1CCCCC1 | -22%
COC(=O)C1=C[C@@H](C(=O)OC)C2C3=C(C(=O)[C@]2(C)NC(=O)c2ccccc2)[C@H](C)n2c(=O)n(-c4ccccc4)c(=O)n2[C@@H]3C1 (stereo partly drawn) | -12%
COc1ccc(S(=O)(=O)c2ccc(OC)c(OC)c2)cc1OC | -7%
O=c1cc(-c2ccccc2)[nH]c2ccc(F)cc12 | -2%&-9%
CCc1ccc(-c2nc3ccc(Br)cc3c(C(=O)O)c2C)s1 | 1%&-10%
CCOC(=O)CCn1c(=O)c2c(nc(Br)n2Cc2ccccc2)n(C)c1=O | 4%
COc1ccccc1CNC(=O)CC(c1ccc(F)cc1)N1Cc2ccccc2C1=O (stereo not drawn) | 8%
O=C(c1ccccc1)N(Nc1ccccc1)c1ccccc1 | 7%
CC(C)c1ccc(S(=O)(=O)N2CCN(CC(=O)Nc3ccc(Cl)cc3F)CC2)cc1 | 4%
Cn1c(C(=O)NCCCN2CCCCCC2)cc2c(=O)n(C)c3ccccc3c21 | 2%
O=C(CNC(=O)c1ccco1)NCc1nc2ccccc2[nH]1 | -4%
CC(=O)c1ccc(NC(=S)NC(=O)c2c(Cl)c(C)nn2C)cc1 | -10%
Cc1ccc(NC(=O)CCS(=O)(=O)c2cc3c(cc2Cl)NC(=O)CO3)cc1 | 0%
Cc1nc2sccn2c(=O)c1S(=O)(=O)N1CCN(c2ccccc2)CC1 | -14%
O=C1OC[C@@H]2CCCN2C(=O)[C@H](CC(=O)N(CCO)Cc2ccccc2)C/C=C\C[C@H]1Cc1ccc(F)cc1 | 11%
CC(OC(=O)c1ccc2c(=O)n3c(nc2c1)CCCCC3)C(=O)Nc1ccc(Cl)cn1 (stereo not drawn) | 10%
Cn1ncc(C#N)c1/N=C/N1CCCCC1 | -4%
CCCCNC(=O)CCCn1c(=O)c2ccccc2n(Cc2ccccc2C)c1=O | 13%
COCC(=O)N(C)[C@H]1C[C@H]2c3cc(-c4ccccc4)ccc3CCN2C(=O)[C@H]1[C@H](C)O | 16%
C1CCc2nnnn2CC1 | 7%&-14%&0%
CCOc1cc(C2c3c(n[nH]c3C)C(=O)N2c2ccc(Br)cc2)ccc1O (stereo not drawn) | -4%
CN1CCc2c(sc3c2C(=O)NC(c2cccs2)N3)C1 (stereo not drawn) | -52%
COc1ccc([C@H]2CC(=O)C=C(c3cccc(OC)c3)C2)cc1 | -12%
C(=N\n1cnc2ccccc21)/c1cccnc1 | -16%
O=[N+]([O-])c1ccc(Cl)c(S(=O)(=O)N2CCCCCC2)c1 | -12%
COc1ccc(N2C(=O)/C(=C/c3ccc([N+](=O)[O-])cc3)N=C2C)c(OC)c1 | 3%
Cc1ccc(S(=O)(=O)N2CCOCC2)cc1NC(=O)COC(=O)CCOc1ccc(C(C)(C)C)cc1 | -17%
CN(CCO)C(=O)C1CCN(c2ncc(C(F)(F)F)cc2Cl)CC1 | -11%
Cc1c(C)n(C)c2ccc(C(=O)NCCCN3CCN(c4ccc(F)cc4)CC3)cc12 | 0%
Cc1ccc(Cl)cc1NC(=S)NCCCSC1CCCCC1 | 0%

Bioassay records from PubChem BioAssay.
